Ecoli growth: inhibitors of Escherichia coli growth | OD600, 23 h; stronger effect = lower value | 330,000 tested, 0.21% active | OD600 absorbance (no concentration beside the values) | AID 1053175;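 active means OD600 absorbance below the run mean of sample wells minus 3.6 SD, in any replicate, cut at about 0.56 in these data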;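 further: stock transfer was 300 nL into about 60 µL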
An asterisk follows results filed as active; & = joins results of further samples. Some of the compounds tested; count on the stated rates, not on these rows.

SMILES	Ecoli growth
COc1ccc(C2CC(=O)C=C(c3cccc(NC(C)=O)c3)C2)cc1 (configuration not stated)	0.6
O=C1NC(Cc2ccccc2)C(=O)N2C1C[C@]1(Br)c3ccccc3N(S(=O)(=O)c3ccccc3)C21 (some centres not stated)	0.71&0.7
CC(C=NNC(=O)c1c(Br)cnn1C)=Cc1ccccc1	0.66
Cc1nn(C2CCS(=O)(=O)C2)c(Cl)c1C=CC(=O)OCC(=O)Nc1ccccc1OC(F)F (configuration not stated)	0.62
CC1CN(C(C)CO)C(=O)c2cc(NS(=O)(=O)c3ccc(F)cc3)ccc2OC1CN(C)C(=O)Nc1ccc(C(F)(F)F)cc1 (configuration not stated)	0.67
CC(C)(C)OC(=O)NCCCCC(NC(=O)c1nc[nH]c1C(=O)NC1CCN(C(=O)OC(C)(C)C)CC1)C(=O)OC(C)(C)C (configuration not stated)	0.7
O=C(NN=CC=Cc1ccccc1)c1ccncc1	0.69
CN1CC2C3C(=O)N(Cc4ccccc4)C(=O)C3[C@](C)(C1=O)N2C(=O)c1ccc(Cl)cc1 (some centres not stated)	0.67
CCN1C(=O)C2C(c3ccc(C)cc3)N3C(=O)N(c4ccc(C)cc4)C(=O)[C@@]3(CC)C2C1=O (some centres not stated)	0.71
CC1NC(=O)c2cc([N+](=O)[O-])cc(I)c2NCCCCC(C(N)=O)NC(=O)C(CC(N)=O)NC1=O (configuration not stated)	0.69
c1ccc2c(CC3CNCCN3CC3CCCCC3)cccc2c1 (configuration not stated)	0.64
COc1ccc(OC)c(C=CC(=O)OCC(=O)Nc2ccc3c(c2)OCCO3)c1	0.69
CCN1C(=NCCc2ccccn2)NC(c2cccc(C(F)(F)F)c2)C(C(=O)OC)=C1C (configuration not stated)	0.69
COC(=O)C1=C(C(=O)OC)C2Nc3ccccc3[C@@]23CC(C(=O)OC)N(C(=O)NC2CCCCC2)C3=N1 (some centres not stated)	0.69
CC[C@@]12C(=O)N(c3cccc(Cl)c3)C(=O)N1C(c1cccc(C)c1)C1C(=O)N(Cc3ccccc3)C(=O)C12 (some centres not stated)	0.69
CCC(C)(O)C(=O)NC1CCCN1C(=O)C=Cc1ccccc1 (configuration not stated)	0.66
Cc1ccc(CN2CC(=O)N3C4c5cc(C)ccc5OCC4C(c4ccccc4)[C@]3(C)C2=O)cc1 (some centres not stated)	0.73
N#CC(N=Nc1ccccc1O)=NNc1ccccc1O	0.62
CCC1=C2CCC3C(=O)N(C)C(=O)C3C2[C@@]2(Cc3ccccc3)C(=NCCOC)OC(=O)N2C1=O (some centres not stated)	0.69
CN1CCC(=O)N(C(CN=[N+]=[N-])Cc2ccccc2)CC1 (configuration not stated)	0.69
CCN1C(=O)NC(c2ccco2)C(C(=O)OC)=C1C (configuration not stated)	0.69
CC1COC(=O)C(Cc2ccc(F)cc2)CC=CCC(CC(=O)NCCO)C(=O)N1 (configuration not stated)	0.73&0.69&0.71&0.67&0.7
COc1ccc(C2CC(=O)C=C(c3cccc4c3Oc3ccccc3S4)C2)cc1OC (configuration not stated)	0.73
CCOC1OC(C(=O)NCc2ccccc2)=CC(C(C)(C)C)C1CCCO (configuration not stated)	0.7&0.66
CC1CN=C(Nc2ccccc2)N1CCc1ccccc1 (configuration not stated)	0.7
C=CCOC(=O)C1=CC(c2csc3ccccc23)CC(OCCCCO)O1 (configuration not stated)	0.67&0.7
CC(C)NC(=O)Nc1cccc2c1OC(CN(C)S(=O)(=O)c1ccccc1)C(C)CN(C(C)CO)C2=O (configuration not stated)	0.61
COc1cc(NS(=O)(=O)c2ccc(NC(=O)C=Cc3cccc([N+](=O)[O-])c3)cc2)ncn1	0.75
COC(=O)N1C(C)C=C[C@]1(Cc1ccccc1)C(=O)O (some centres not stated)	0.68
CC(C)(C)OC(=O)NC(C=Cc1ccccc1)C(=O)OC(C)(C)C (configuration not stated)	0.64&0.68
CCCN1CC(CSC)CC2c3cccc4[nH]cc(c34)CC21 (configuration not stated)	0.69
CCN1C(=NCCc2ccc([N+](=O)[O-])cc2)NC(c2ccccc2)C(C(=O)OC)C1C (configuration not stated)	0.71
OCCC1CC(O)C(O)[C@]2(CCCCO2)O1 (some centres not stated)	0.66&0.64&0.68&0.73
C#CCOCCOCCOCCNc1nc(N2CCN(C(=O)C(CCCCN)n3cc(C(N)C(C)CC)nn3)CC2)nc(N2CCN(C(=O)C(Cc3ccc(O)cc3)n3cc(C(N)C(C)CC)nn3)CC2)n1 (configuration not stated)	0.69
CC(NC(=O)c1coc(=O)c(Br)c1)c1ccccc1 (configuration not stated)	0.72
O=C(C1=CC(c2ccc3c(c2)OCO3)CC(OCc2ccc(CO)cc2)O1)N1CCOCC1 (configuration not stated)	0.71&0.69
C=CCN1C(=O)NC(c2ccccc2)(C(F)(F)F)SC1=C(C#N)c1nnc(N2CCOCC2)n1-c1ccccc1 (configuration not stated)	0.72
COC(=O)[C@]1(C)NC(c2ccc(-c3ccccc3)cc2)C2C(=O)N(C)C(=O)C21 (some centres not stated)	0.69
CC1CN(C(C)CO)C(=O)c2cc(NC(=O)Nc3ccc4c(c3)OCO4)ccc2OC1CN(C)S(=O)(=O)c1cccs1 (configuration not stated)	0.66
O=C1CCNCCN1C(CO)c1ccccc1 (configuration not stated)	0.7
Cc1ccc(NC(=O)CC2SC(=NN=Cc3ccco3)NC2=O)cc1Cl (configuration not stated)	0.7
CCN1CC2C3C(=O)N(Cc4ccccc4)C(=O)C3[C@](CC)(C1=O)N2C(=O)c1ccc(C(C)(C)C)cc1 (some centres not stated)	0.71
CC[C@@]12C(=O)N(c3ccc(OC)cc3)C(=O)N1C(c1ccc(Cl)cc1)C1C(=O)N(C3CCCCC3)C(=O)C12 (some centres not stated)	0.71
CCCCC(CNC)NCC(Cc1ccc(O)cc1)NCCc1ccc(OCC)cc1 (configuration not stated)	0.67
O=C(O)C1=CC(c2ccc(Br)cc2)CC(OCc2ccc(CO)cc2)O1 (configuration not stated)	0.68&0.68
COC(=O)C1CC2CCC(O)CC2N1Cc1ccc(Cl)cc1 (configuration not stated)	0.63&0.63
CCc1ccccc1NC(=O)NC(C(=O)O)C(C)C (configuration not stated)	0.73
NC(N)=NCCCC(NC(=O)OCc1ccccc1)C(=O)O (configuration not stated)	0.67
O=C1C=C(c2ccc3ccccc3c2)CC(c2ccc(F)cc2)C1 (configuration not stated)	0.67
COc1cccc(C=Cc2ccc3ccccc3n2)c1OC(C)=O	0.7

More results follow:
SMILES	Ecoli growth
CC(=NN=C1NC(=O)CC(C(=O)O)S1)c1ccccc1 (configuration not stated)	0.67
CCOC(=O)C1(Cc2cccc(OC)c2)CCN(CC=Cc2ccc(OC)cc2)CC1	0.67
O=C1C=C(c2ccc(C(=O)O)c(Cl)c2)CC(c2ccc3c(c2)OCO3)C1 (configuration not stated)	0.7
CC(C)(C)OC(=O)CC1CC=CCC(CC(=O)N(CCO)Cc2ccccc2)C(=O)NC(Cc2c[nH]c3ccccc23)COC1=O (configuration not stated)	0.73&0.69&0.69
COc1ccc(C2CC=C(C(=O)O)C(c3ccccc3F)N2S(=O)(=O)c2ccccc2C)cc1 (configuration not stated)	0.7
COC(=O)c1cccc(C23CC4(C2)C(CN(CC2CCCCC2)C4c2ccccc2)C3c2ccccc2)c1 (configuration not stated)	0.7
CN1CCN(C(=O)C2=CC(c3ccccc3)CC(OCCCCO)O2)CC1 (configuration not stated)	0.7
O=S1(=O)CCOCC(CC2CCCCC2)N1Cc1ccccc1 (configuration not stated)	0.7
COc1ccc(C2CC(=O)C=C(c3ccccc3C(F)(F)F)C2)cc1 (configuration not stated)	0.7
CCCCC=CC(NC(=O)c1ccc(-c2ccccc2)cc1)c1ccccc1 (configuration not stated)	0.69
C=CCC(CC(=O)N(CCO)Cc1ccccc1)C(=O)NC(C)COC(=O)C(CC=C)CC(=O)OC(C)(C)C (configuration not stated)	0.66&0.68&0.71
C=C1CCN(C(CC(C)C)C(=O)NCCCc2ccccc2)S(=O)(=O)c2ccccc21 (configuration not stated)	0.68
CC(N)=C(C#N)C(=O)CN1CCCCC1	0.66
CC(C)(C)OC(=O)CNC(=O)c1[nH]cnc1C(=O)NC(Cc1ccccc1)C(=O)OC(C)(C)C (configuration not stated)	0.68
Cc1noc(C)c1NC(=O)N(C)CC1Oc2c(NS(=O)(=O)c3cn(C)cn3)cccc2C(=O)N(C(C)CO)CC1C (configuration not stated)	0.66
CCOC(=O)CC1c2ccccc2S(=O)(=O)N1Cc1ccc(Cl)cc1 (configuration not stated)	0.69
O=C1C=C(c2cc(Cl)cc(Cl)c2)CC(c2ccc(F)cc2)C1 (configuration not stated)	0.69
Cc1cn(C(CCCCNC(=O)OC(C)(C)C)C(=O)NCCCCCCCCCCC(=O)N2CCN(C(=O)OC(C)(C)C)CC2)nn1 (configuration not stated)	0.75
CC(C)(C)OC(=O)CC1CC=CCC(CC(=O)N(CCO)Cc2ccccc2)C(=O)N2CCCC2COC1=O (configuration not stated)	0.65&0.72&0.69&0.71&0.71
Cc1ccc(C(=O)NC(=Cc2ccco2)C(=O)NCCc2c[nH]c3ccccc23)cc1C	0.68
O=C(NC(Cc1ccccc1)C(=O)OCc1ccccc1)c1nc[nH]c1C(=O)N1CCc2ccccc2C1 (configuration not stated)	0.74
C#CCOCCOCCOCCNc1nc(N2CCN(C(=O)C(CCCCN)n3cc(C(N)C(C)CC)nn3)CC2)nc(N2CCN(C(=O)C(Cc3cc4ccccc4[nH]3)n3cc(C(N)C(C)CC)nn3)CC2)n1 (configuration not stated)	0.6
CCOC(=O)C1C2COc3ccccc3C2N2C(=O)N(c3cccc(C)c3)C(=O)[C@]12C (some centres not stated)	0.63&0.67
O=C(O)C1=CCC(c2ccc(Cl)cc2)N(S(=O)(=O)c2ccc(Cl)cc2)C1 (configuration not stated)	0.67
CC(C)C(NC(=O)C(CC(=O)O)NC(=O)C(CCCCN)NC(=O)C(N)CCCN=C(N)N)C(=O)NC(Cc1ccc(O)cc1)C(=O)O (configuration not stated)	0.69
NC(=NNC(=O)c1sccc1OCc1ccc(Cl)cc1Cl)c1ccccn1	0.72
CCOC(=O)C1C2COc3ccc(Br)cc3C2N2C(=O)N(c3ccc(C)cc3)C(=O)[C@]12C (some centres not stated)	0.65&0.72
Cc1ccc(S(=O)(=O)N2C(c3cccs3)CC=C(C(=O)O)C2c2ccccc2F)cc1 (configuration not stated)	0.71
CCN1CC2C3C(=O)N(Cc4ccccc4)C(=O)C3[C@](Cc3ccccc3)(C1=O)N2C(=O)c1ccc(Br)cc1 (some centres not stated)	0.72
O=C1CCC=CCC(CC(=O)N(CCO)Cc2ccccc2)C(=O)N2CCCC2CO1 (configuration not stated)	0.68
FC(F)(F)c1cc(COC2CCCNC2c2ccccc2)cc(C(F)(F)F)c1 (configuration not stated)	0.64
CCC(=O)Nc1cccc(C2=NOC3(C2)CC(C(N)=O)N(C(=O)c2ccc(OC)cc2)C3)c1 (configuration not stated)	0.72
CN(C(Cc1ccc(OS(=O)(=O)c2cccc3cnccc23)cc1)C(=O)N1CCN(c2ccccc2)CC1)S(=O)(=O)c1cccc2cnccc12 (configuration not stated)	0.7
CC=C(C)C(=O)NCCN1C2=NCC(C)N2CC1Cc1ccc(OC)cc1 (configuration not stated)	0.68&0.7
Cc1ccc(-c2csc(N3CCCC3C(=O)NCCn3c(C(F)(F)F)nc4ccccc43)n2)cc1 (configuration not stated)	0.71
COc1ccc(C=O)cc1C1=CC(=O)CC(c2ccc(Cl)cc2)C1 (configuration not stated)	0.6
CC1COC(=O)C(NC(=O)OCC2c3ccccc3-c3ccccc32)CC=CCC(CC(=O)NCCO)C(=O)N1 (configuration not stated)	0.69
Cc1cccc(C2C3C(=O)N(Cc4ccccc4)C(=O)C3[C@]3(C)C(=O)N(c4cccc(F)c4)C(=O)N23)c1 (some centres not stated)	0.68
COc1ccc2c(c1)C1C(CO2)C(c2ccccc2)[C@]2(C)C(=O)Nc3ccccc3C(=O)N12 (some centres not stated)	0.72
CCCCCC1CN(C2CCCCC2)C(=O)C1CC(=O)NCc1ccc(OC)cc1 (configuration not stated)	0.69
CN1CC2C3C(=O)N(Cc4ccccc4)C(=O)C3[C@](C)(C1=O)N2C(=O)c1ccc(F)cc1 (some centres not stated)	0.71
COC(=O)C1=C(C)N(Cc2ccccc2)C(=NCc2cccc(C(F)(F)F)c2)NC1c1cccc(F)c1 (configuration not stated)	0.64
CC(C)(C)C1C=C(C(=O)NCc2ccccc2)OC(OCCCCO)C1 (configuration not stated)	0.67
CC(C(=O)Nc1nc2ccc(F)cc2s1)N1C(=O)C2CC=CCC2C1=O (configuration not stated)	0.68

Structural class, the compounds so far containing a COOH group
SMILES	Ecoli growth
COC(=O)N1C(C)C=C[C@]1(Cc1ccccc1)C(=O)O (some centres not stated)	0.68
O=C(O)C1=CC(c2ccc(Br)cc2)CC(OCc2ccc(CO)cc2)O1 (configuration not stated)	0.68&0.68
CCc1ccccc1NC(=O)NC(C(=O)O)C(C)C (configuration not stated)	0.73
NC(N)=NCCCC(NC(=O)OCc1ccccc1)C(=O)O (configuration not stated)	0.67
CC(=NN=C1NC(=O)CC(C(=O)O)S1)c1ccccc1 (configuration not stated)	0.67
O=C1C=C(c2ccc(C(=O)O)c(Cl)c2)CC(c2ccc3c(c2)OCO3)C1 (configuration not stated)	0.7
COc1ccc(C2CC=C(C(=O)O)C(c3ccccc3F)N2S(=O)(=O)c2ccccc2C)cc1 (configuration not stated)	0.7
O=C(O)C1=CCC(c2ccc(Cl)cc2)N(S(=O)(=O)c2ccc(Cl)cc2)C1 (configuration not stated)	0.67
CC(C)C(NC(=O)C(CC(=O)O)NC(=O)C(CCCCN)NC(=O)C(N)CCCN=C(N)N)C(=O)NC(Cc1ccc(O)cc1)C(=O)O (configuration not stated)	0.69
Cc1ccc(S(=O)(=O)N2C(c3cccs3)CC=C(C(=O)O)C2c2ccccc2F)cc1 (configuration not stated)	0.71

Screening results from PubChem BioAssay.
